Screens from PubChem.
BJeLR lethal = BJeLR cell viability loss; AID 1554; inhibition, % (no concentration beside the values); 300,000 tested, 0.17% active; BJeLR (HRASV12) viability, CellTiter-Glo ATP luminescence, 48 h; reference of the scale not given here;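 active = replicate mean above 50%; inconclusive = above 50% but judged a plate artefact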;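 also: 50 nL library stock added to about 25 µL; numbers are from one replicate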
Sa RN4220 lethal = kills Staphylococcus aureus RN4220. S. aureus RN4220 growth, OD600, 16 h. AID 1259311. 330,000 tested, 0.33% active. inhibition, % (no concentration beside the values);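 active = z-score of -3 or lower and OD600 up to 0.18 on both plates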;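 also: plate controls were untreated cells for no effect and reference antibiotic for full effect; stock transfer was 100 nL into about 80 µL; one replicate is shown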
PrP 5UTR inh = inhibition of PrP 5' UTR reporter expression; cell-based PrP 5' UTR mRNA reporter, plate reader; inhibition, % (test concentration not listed); 340,000 tested, 0.35% active; AID 488862;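 active = every replicate at 50% or more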;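 also: 0 = median of the neutral control wells; tested in H4 reporter cells; numbers are from one replicate; inactives centre near -14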
Mtb hypoxia inh = Mtb hypoxia fluorescent reporter inhibition; M. tuberculosis hypoxia-regulated fluorescent reporter, fluorescence; AID 1159583; 300,000 tested, 0.1% active; fluorescence inhibition, % (test concentration not listed);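 active = 35 to 45% if threefold the growth effect, above 45% if 1.5-fold the growth effect; inactive = the rest, general growth blockers included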;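 also: wells of about 50 µL received 100 nL stock; 0% = vehicle wells and 100% = reference inhibitor wells; whole bacteria with a GFP reporter of the hypoxia response; strong numbers were not always called active; many hits fall short of the cut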
Autofluor counter = compound fluorescence in toxin protease inhibitor counterscreen. 360,000 tested, 3.1% active. fluorescence intensity (no concentration beside the values). compound autofluorescence counterscreen, microsphere flow cytometry; active compounds read high. AID 624483;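 active = at least 3 SD above the mean of all compounds, about 16000 in these data; inconclusive = too few beads counted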;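 also: 100 nL of 1 mM stock went into each well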
Sa ugtP lethal = growth inhibition of S. aureus ugtP deletion strain | 330,000 tested, 0.54% active | S. aureus RN4220 ugtP deletion, OD600 growth, 16 h; some inactives read as strong as hits | AID 1259309 | growth inhibition, % (concentration not given with the values);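 active = z-score under -3 and OD600 up to 0.15 on both plates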;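 also: plate controls were untreated wells for no effect and antibiotic for full effect; wells of about 80 µL received 100 nL stock; the first replicate is given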
Mtb hypoxia inh growth = also measured in Mtb hypoxia inh; calls as there; growth inhibition, %; measured here: M. tuberculosis growth (absorbance);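 0% = vehicle and 100% = reference antibiotic; read after six days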
Numbers without * were called inactive; ? = inconclusive; . = not tested or not shown.

# | SMILES | BJeLR lethal | Sa RN4220 lethal | PrP 5UTR inh | Mtb hypoxia inh | Mtb hypoxia inh growth | Autofluor counter | Sa ugtP lethal
1 | COc1ccc(/C=C(/NC(=O)c2ccccc2)c2nc3ccccc3[nH]2)cc1OC | -6.8 | 0.3 | -10.5 | . | . | 3654 | -1.6
2 | COC(=O)C1=C(c2cccc(C#N)c2)CC2CCC1N2C(=O)NCCOc1ccc(OC)cc1 (stereo not drawn) | . | 0.9 | . | 2.7 | 9.4 | . | 5.7
3 | O=C(Nc1ccc(N2CCOCC2)cc1N1CCOCC1)c1ccccc1 | . | -0.6 | -17.4 | 4.0 | 12.6 | 3872 | -1.6
4 | CCNC(=O)CN(c1ccc(Br)c(C)c1)S(C)(=O)=O | -0.4 | 1.5 | -18.3 | 6.6 | -1.0 | 4643 | 1.8
5 | CCOC(=O)CSc1nnc(CNC(=O)c2ccc(S(=O)(=O)N3CCOCC3)cc2)n1C | 3.8 | 8.8 | -14.9 | 15.4 | 8.7 | 1902 | 5.2
6 | CC(c1ccccc1)N1CC(C(=O)N2CCN(c3ccc(F)cc3)CC2)CC1=O (stereo not drawn) | 6.3 | 0.7 | -25.3 | 3.3 | 1.0 | 11295 | 8.7
7 | NNC(=O)[C@@H]1C[C@@H]1c1ccccc1 | -7.2 | 1.2 | -17.5 | 9.3 | -2.4 | 2329 | 1.7
8 | C/[N+]([O-])=C\c1coc2ccccc2c1=O | -8.0 | -2.9 | -9.5 | . | . | 2281 | 4.7
9 | Cc1ccc(S(=O)(=O)N2CCN(C(=O)COC(=O)CCOc3ccccc3C)CC2)cc1 | -0.4 | 3.1 | 3.6 | 1.5 | -0.5 | 5580 | 0.5
10 | Cc1cccc(OCCn2c(S(=O)(=O)O)nc3ccccc32)c1 | 0.2 | 0.6 | -32.5 | 15.1 | 7.9 | 9777 | 0.3
11 | COc1cccc(N2CC(NS(=O)(=O)c3cccs3)CC2=O)c1 (stereo not drawn) | 9.3 | 4.2 | -8.6 | 4.0 | 4.4 | . | 11.0
12 | COC(=O)c1ccc(CSc2nnc(C)n2N)o1 | 5.3 | 1.0 | -23.3 | -4.8 | -3.9 | 2134 | 5.6
13 | COc1ccccc1Nc1c2c(nc3ccccc13)CCC2 | 22.5 | -1.6 | -32.8 | -5.2 | 0.8 | 3752 | 2.6
14 | NNC(=O)Cn1nnc(-c2ccc(C(F)(F)F)cc2)n1 | -12.7 | 4.0 | . | 8.0 | 3.1 | . | 11.1
15 | NNC(=O)c1ccc(Cl)cc1 | -1.9 | 1.9 | 20.3 | 6.7 | 8.3 | 8726 | 9.5
16 | O=C(CCNC(=O)c1ccco1)NCc1ccccc1 | -1.0 | 7.9 | -20.1 | . | . | 2605 | 2.3
17 | CC(C)(C)C1CCc2onc(C(=O)N3CCOCC3)c2C1 (stereo not drawn) | -4.3 | 0.6 | -4.9 | 0.9 | 2.8 | 11821 | 4.0
18 | CCN(Cc1ccccc1)C(=O)c1cc(COc2c(F)cccc2F)on1 | 13.3 | 5.9 | -15.7 | 16.9 | 9.2 | 4056 | 1.9
19 | Cc1cc(NC(=O)CSC2=Nc3ccccc3C3=NC(Cc4ccccc4)C(=O)N23)n[nH]1 (stereo not drawn) | 10.2 | 1.1 | -23.4 | 7.3 | 17.0 | 9422 | 0.3
20 | CC(=O)C[C@H](O)CC(=O)[C@H]1OC(=O)CC/C=C\Cc2ccccc21 | . | -2.0 | -4.1 | 7.8 | 0.5 | 2835 | 7.5
21 | COc1nc(OC)nc(N2CCC(C(=O)NC3CCCCCC3)CC2)n1 | -7.0 | 3.5 | -31.5 | -0.2 | 5.7 | 5648 | -7.5
22 | CCn1c2ccccc2c2cc(NC(=O)c3cc(OC)c(OC)c(OC)c3)ccc21 | 45.6 | 11.0 | 34.3 | 2.5 | 11.1 | 10757 | -17.5
23 | CCC(C)NC(=O)c1ccc2c(c1)S(=O)(=O)c1ccccc1C2=O (stereo not drawn) | -1.3 | 5.4 | -2.6 | -5.7 | 5.4 | 5204 | 4.4
24 | Brc1cc2c(cc1Br)OCCOCCOCCO2 | -7.4 | 1.8 | -10.2 | 18.6 | 23.4 | 3794 | 3.7
25 | CCCCC[C@H]1CN(CCc2ccccc2)C(=O)[C@@H]1CC(=O)NCc1ccc(OC)cc1 | 4.4 | -9.9 | -21.2 | 4.8 | 12.2 | 3445 | -25.2
26 | Cn1c(-c2sccc2OCc2cccc(C(F)(F)F)c2)n[nH]c1=S | 3.7 | 8.8 | -22.3 | -0.2 | 5.4 | 4458 | 5.6
27 | CCCc1nc2n[nH]c(N)c2c2c1CCCC2 | 9.4 | -0.6 | 6.5 | . | . | 4489 | -0.3
28 | Cc1noc(C)c1C=NNc1ccccn1 | . | 1.5 | . | -7.3 | 9.0 | . | -9.0
29 | COc1ccccc1Cn1c(=S)[nH]c2cc(C(=O)N3CCN(C)CC3)ccc2c1=O | -4.8 | 8.3 | -5.8 | 1.6 | 1.0 | 10236 | 7.3
30 | O=C(NNC(=O)c1ccco1)Nc1ccccc1 | 7.1 | -0.3 | -47.0 | -0.9 | 6.4 | 5394 | 0.2

Complete entries from above. Values in the order: BJeLR lethal | Sa RN4220 lethal | PrP 5UTR inh | Mtb hypoxia inh | Mtb hypoxia inh growth | Autofluor counter | Sa ugtP lethal
`Cc1noc(C)c1C=NNc1ccccn1` is listed with . | 1.5 | . | -7.3 | 9.0 | . | -9.0
`COC(=O)C1=C(c2cccc(C#N)c2)CC2CCC1N2C(=O)NCCOc1ccc(OC)cc1` (stereo not drawn) is listed with . | 0.9 | . | 2.7 | 9.4 | . | 5.7

Later entries:
# | SMILES | BJeLR lethal | Sa RN4220 lethal | PrP 5UTR inh | Mtb hypoxia inh | Mtb hypoxia inh growth | Autofluor counter | Sa ugtP lethal
31 | Cc1ccc(OCC(=O)N/N=C2/SCC(=O)N2Cc2ccccc2)cc1 | 1.2 | . | -15.0 | . | . | 1959 | .
32 | Cc1cc(C)cc(NC(=O)CCc2c(C)nn(-c3ccc(N4CCOCC4)nn3)c2C)c1 | -6.1 | 6.2 | -37.4 | 16.7 | 6.6 | 5975 | 11.9
33 | Cc1c(NC(=O)c2ccc3c(c2)C(=O)N(Cc2ccco2)C3=O)cccc1C(=O)O | 3.0 | -0.8 | -28.1 | -3.4 | -3.3 | 4551 | 3.0
34 | O=c1oc2ccccc2c(O)c1/C=N/c1ccccn1 | 0.4 | . | -5.1 | . | . | 3086 | .
35 | COc1ccc(C(C(=O)NC2CCCCC2)N(C(=O)c2sc(C)nc2C)c2ccc(C(C)=O)cc2)cc1 (stereo not drawn) | 18.7 | 0.4 | -40.3 | 0.9 | 15.8 | 12845 | -1.4
36 | CC(=O)N1CCN(C(=O)c2ccc(NS(=O)(=O)c3ccc4c(c3)OCCO4)cc2)CC1 | -11.1 | . | -14.3 | . | . | ? | .
37 | C=CCn1c(=NC(=O)CN2C(=O)CCC2=O)sc2cc(S(N)(=O)=O)ccc21 | 3.1 | 4.4 | 3.3 | 6.4 | 4.7 | 1909 | 3.5
38 | O=C(Nc1ncccc1O)c1ccc(S(=O)(=O)N2CCCCCC2)cc1 | -5.0 | 1.3 | -23.5 | -0.3 | 0.5 | . | 0.9
39 | COCCNC(=O)C(=O)N/N=C(\C)CC(=O)Nc1ccc2c(c1)OCO2 | 4.4 | . | -7.4 | . | . | 4313 | .
40 | O=C(COC(=O)CNC(=O)c1ccccc1F)Nc1ccc2[nH]c(=O)[nH]c2c1 | 6.8 | 3.1 | -4.3 | 7.7 | -5.9 | 5021 | 4.9
41 | CC1(C)Cc2c(sc3nc(-c4ccccc4)oc(=O)c23)CO1 | 4.1 | -2.0 | -12.7 | -5.5 | -7.5 | 2431 | -10.3
42 | CCCCCN(C(=O)CCC(=O)OCC(=O)Nc1ccc(C)cc1F)c1c(N)n(CCCC)c(=O)[nH]c1=O | 10.8 | -0.1 | -21.3 | -0.1 | 4.4 | 5332 | 4.7
43 | COc1cccc(C(=O)NC2CC(C)(C)NC(C)(C)C2)c1OC | -4.5 | . | -21.5 | . | . | 3802 | .
44 | O=c1[nH]c(C2CCN(S(=O)(=O)c3ccc4c(c3)OCCO4)CC2)nc2c1nnn2Cc1ccccc1F | 12.1 | . | -29.9 | . | . | 6027 | .
45 | Cc1ccc(NC(=O)CCc2nnc3ccc(NCc4ccco4)nn23)nc1 | 7.0 | -1.9 | -5.4 | -0.6 | -8.8 | 2960 | -2.0
46 | CCCc1n(CC(O)COCC2CC=CCC2)c2ccccc2[n+]1C (stereo not drawn) | 13.1 | 4.5 | -24.4 | 8.0 | 10.8 | 4804 | 2.7
47 | CN(C)C=NC(=S)Nc1ccc(Br)cc1F | . | 15.0 | . | -2.3 | 1.9 | . | 17.2
48 | Fc1ccccc1N=C1Nc2cccc3cccc1c23 | -1.3 | -3.5 | -21.7 | 2.6 | 13.3 | 3295 | -15.6
49 | COc1cc2[nH]c(O)c(C=O)c2cc1OC | . | -1.5 | -6.8 | 13.1 | 12.1 | 3730 | 0.3
50 | CCc1[nH]nc(C(=O)N2CCCC(CCC(=O)N3CCN(c4ccccn4)CC3)C2)c1C (stereo not drawn) | 1.9 | 2.8 | -19.7 | -2.9 | -2.5 | 4908 | 7.1
51 | O=C(OCCOCn1cc(Br)c(=O)[nH]c1=O)c1ccccc1 | -4.9 | 3.2 | . | 0.3 | 9.0 | . | -0.7
52 | CCC(=O)Nc1cc(C(=O)O)ccc1Sc1ccc(C)cc1 | -6.3 | 2.6 | 15.9 | 0.4 | 6.9 | 4324 | 6.4
53 | COC(=O)c1ccc(NC(=O)c2ccccc2C(=O)Nc2ccc(C(=O)OC)cc2)cc1 | 4.9 | 1.3 | -19.4 | 9.0 | 4.5 | 6278 | 6.6
54 | O=C(C1CCC(=O)N(C2CCCC2)C1)N1CCC(Oc2ccccc2Cl)CC1 (stereo not drawn) | 1.1 | -0.2 | -19.7 | 12.9 | -12.1 | 5481 | 11.9
55 | O=S1(=O)NC(=NCCc2ccccn2)c2ccccc21 | -3.7 | 5.5 | -25.9 | 7.9 | 5.9 | 3462 | 4.2
56 | Cc1cc2cc(CNC(=S)Nc3ccc(OC(F)F)cc3)ccc2n1C | -7.0 | 4.0 | -13.1 | -9.6 | -3.7 | 1428 | -9.2
57 | CCOC(=O)C1CCN(C(=O)CC(C)c2ccccc2)CC1 (stereo not drawn) | 1.2 | 7.6 | -16.7 | 6.3 | 3.4 | 3324 | 7.0
58 | Cc1ccc(S(=O)(=O)N(CC(=O)NCc2ccc(F)cc2)C(=O)N2CCN(C)CC2)cc1 | 9.7 | 3.7 | -4.8 | 12.9 | 4.9 | 6066 | 4.1
59 | CCC(=O)Nc1ccc(-c2ccc(N3CCC(C)CC3)nn2)cc1 | -5.1 | -1.1 | -55.9 | 1.6 | -6.9 | 5309 | 3.5
60 | COc1cccc(C2CC3(CC(C)(C)NC(=S)N3)Oc3cc(O)ccc32)c1 (stereo not drawn) | -6.3 | -5.6 | 0.3 | -2.4 | 9.7 | 2168 | -8.7

Going on with the list:
# | SMILES | BJeLR lethal | Sa RN4220 lethal | PrP 5UTR inh | Mtb hypoxia inh | Mtb hypoxia inh growth | Autofluor counter | Sa ugtP lethal
61 | O=C(CCn1ccc2ccccc21)NC1CCCc2ccccc21 (stereo not drawn) | 5.6 | -7.1 | 19.0 | . | . | 3593 | -10.5
62 | COc1cc(C(=S)N2CCCC2)cc(Cl)c1O | 0.1 | 2.7 | -32.7 | 13.7 | 1.7 | 4243 | 2.4
63 | O=C(NN=CC1CC=CCC1)c1ccc(Cl)cc1O (stereo not drawn) | . | 9.6 | . | 15.8 | 7.4 | . | 4.6
64 | Cc1nnc(OC(C)C)c2nn(-c3ccccc3F)c(C)c12 | 4.2 | -6.9 | -4.8 | 6.5 | 8.0 | 3077 | 1.0
65 | COc1cccc(/C=C/C(=O)OCC(=O)N2c3ccccc3NC(=O)C2(C)C)c1 | -2.4 | -0.1 | -3.2 | 1.4 | 7.1 | 2391 | -4.3
66 | FC(F)(F)c1cnc(NNC(=S)Nc2cccnc2)c(Cl)c1 | . | -0.5 | 8.8 | 13.6 | 1.5 | 3176 | 10.8
67 | COc1cccc(OC)c1C(=O)N1CCN(Cc2ccncc2)CC1 | -9.7 | 0.5 | -25.1 | . | . | 4611 | -4.0
68 | O=[N+]([O-])c1cc(C(F)(F)F)ccc1N1CCN(S(=O)(=O)c2ccc3c(c2)CCCC3)CC1 | -1.1 | -0.8 | -21.5 | 14.2 | 0.6 | 8353 | 18.7
69 | O=C(CSc1ccc(Br)c2cccc(Cl)c12)Nc1ccc(S(=O)(=O)Nc2nccs2)cc1 | 2.4 | -3.2 | -8.6 | 16.2 | 3.6 | 3502 | -16.2
